# CtBP-E1A blk – blocks the CtBP interaction with E1A; AlphaScreen GST-E1A/His-CtBP binding, 1536-well; hits give low values; control for the full effect not named in the record; actives 0.49% (n = 340,000); AID 651724; activity change, % (test concentration not listed); in the data active means activity change below about -65%; inconclusive means about -30% to -65%; inactive means above about -30%; note: % is set by controls: 0 for no effect and ±100 for the full control effect; compound concentration not given in the record
#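 Protein mix (5X: 125 nM each GST-E1A, His-CtBP) was incubated with pinned compound 2 h at 37 deg C in dark, in 50 mM Tris pH 8.0 buffer with 300 mM NaCl. Glutathione donor and nickel acceptor beads followed; AlphaScreen signal read after 1 h.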
# gsp antag – antagonizes gsp, the McCune-Albright syndrome mutation; actives 0.4% (n = 340,000); Potency, µM (highest dose often 76.9 µM), for the others: top-dose activity change, negative = inhibition, usual class: inhibitors; gsp-mutant cells, cAMP HTRF, 30 min; control for the full effect not named in the record; active = falling curve of any shape with a large fitted effect; inconclusive = falling curve, mostly with a smaller effect; inactive = flat or rising curve; cell line not stated here;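 note: intracellular cAMP measured with PDE inhibitor Ro 20-1724 present during compound exposure; potency is the fitted concentration of half-maximal effect; % is set by controls: 0 for no effect and ±100 for the full control effect; nearly all actives have a fitted effect of over 65% in size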
#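 HTRF cAMP read-out (cAMP-d2 plus anti-cAMP antibody-K in lysis buffer, 30 min RT). Before lysis, cells are exposed to compounds with […] for 30 min at 37C in DPBS containing Ca/Mg, BSA and Tween 20.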
# D2 ag – human D2 receptor agonism in beta-arrestin assay. DiscoveRx PathHunter D2 beta-arrestin, luminescence, 90 min; 100% = 57 uM dopamine signal. activation, % (test concentration not listed). actives 0.084% (n = 360,000). AID 624465; in the data active = activation above about 40%; inconclusive = about 15% to 40%; inactive = below about 15%; note: compound concentration not given in the record; the text of the record calls up to 30% inactive
# Target sequence (P14416 whole entry, looked up): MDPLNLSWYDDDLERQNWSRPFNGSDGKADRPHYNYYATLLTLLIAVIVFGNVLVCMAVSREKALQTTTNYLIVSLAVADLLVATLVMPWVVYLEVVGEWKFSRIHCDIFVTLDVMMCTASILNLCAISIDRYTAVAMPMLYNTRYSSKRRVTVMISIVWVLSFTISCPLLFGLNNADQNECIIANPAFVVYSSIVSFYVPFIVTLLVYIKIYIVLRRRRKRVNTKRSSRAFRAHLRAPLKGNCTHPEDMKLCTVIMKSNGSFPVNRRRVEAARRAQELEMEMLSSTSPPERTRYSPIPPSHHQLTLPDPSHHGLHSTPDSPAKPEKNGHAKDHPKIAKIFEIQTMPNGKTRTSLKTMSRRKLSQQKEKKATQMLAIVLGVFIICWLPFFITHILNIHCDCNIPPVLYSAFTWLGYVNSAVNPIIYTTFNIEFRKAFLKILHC
#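 DiscoveRx PathHunter D2 beta-arrestin cells (2,100/well) attached overnight, then compound-stimulated 90 min at 37 C in HBSS/10 mM HEPES/0.1% Tween-20 buffer; beta-galactosidase complementation read by luminescence after 1 h at ambient temperature. Dopamine 57 uM final (EC100) as control.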
# D2 PAM – human D2 receptor positive allosteric modulation | P14416 | DiscoveRx D2 beta-arrestin cells, luminescence, 90 min; 100% = 57 uM dopamine signal | potentiation, % (concentration not given with the values) | actives 0.23% (n = 360,000) | AID 624464; active = potentiation of 50% or more; inconclusive = 30% to 50%; inactive = 30% or less;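 note: compound concentration not given in the record; tested on top of an EC20 dose of dopamine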
#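 PathHunter D2 cells, attached overnight at 37 deg C, received compound in DMSO plus dopamine at EC20 (50 nM final) for 90 min at 37 deg C. Beta-arrestin recruitment was read as luminescence after 1 h with detection reagent at ambient temperature.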
# gsp ag – gsp mutant agonism. Potency, µM (highest dose often 76.9 µM), for inactives: top-dose activation (cAMP increase), usual class: activators. gsp mutant cells, cAMP HTRF, 30 min; control for the full effect not named in the record. AID 624287. actives 0.13% (n = 340,000); active = well fitted activation curve with a large enough effect; inconclusive = small, poorly fitted or top-dose-only effect, or another doubt; inactive = no such curve, though single readings can be large or run the other way; cell line not stated here;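 note: phosphodiesterase inhibitor Ro 20-1724 added with compounds to block cAMP breakdown; potency is the fitted concentration of half-maximal effect; nearly all actives have a fitted effect of over 60% in size; about a fifth of the inactives were tested at one dose only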
#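 Cells in DMEM/10% FBS with G418 were pretreated with compounds in DMSO plus […] (300 uM stock) for 30 min at 37C. cAMP was measured by HTRF (cAMP-d2 plus anti-cAMP antibody-K) after 30 min at room temperature.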
# Six1-Eya2 blk – Six1/Eya2 interaction inhibition | actives 0.56% (n = 360,000) | AlphaScreen GST-Six1/His-Eya2 binding, biochemical; hits give low values; control for the full effect not named in the record | activity change, % (test concentration not listed); in the data active = activity change below about -65%; inconclusive = about -30% to -65%; inactive = above about -30%; note: % is set by controls: 0 for no effect and ±100 for the full control effect; compound concentration not given in the record
#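 Homogeneous AlphaScreen proximity assay pairing GST-Six1 with His-tagged Eya2 (added as 5X mix: 250 nM and 500 nM) in 50 mM Tris pH 8.0, 300 mM NaCl, 1 mM TCEP. Glutathione donor and nickel acceptor beads; 1 h, 37 °C, dark.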
# * marks the source's active call; other numbers are inactive results; u = inconclusive; x = no result given; [ ] = dose if it differs, or a comment.
cpd	gsp antag	D2 ag	SMILES	D2 PAM	Six1-Eya2 blk	CtBP-E1A blk	gsp ag
1	-6%	-1.8	COc1ccccc1NC(=O)CCCNC(=O)Cn1cnc2sc(C)c(C)c2c1=O	-5	-4	12	-5%[15.4 µM]
2	2%	0.4	O=C(NCc1ccco1)C1(c2ccccc2)CCCC1	-2	-3	-2	6%
3	11µM*	8.8	COc1ccc(Cn2c(=O)sc3ccccc32)cc1OC	19	5	-2	-25%
4	11%	-1.7	CCOC(=O)CN1C(=O)N[C@@H](CCc2ccccc2)[C@H](C(=O)OC)[C@H]1C	5	27	30	x
5	x	-6.3	O=C(/C=C/[C@H]1O[C@@H](n2ccc(=O)[nH]c2=O)[C@H](O)[C@@H]1O)NCc1ccco1	-7	2	7	x
6	-3%	-1.6	COc1ccccc1NC(=O)CSc1ncn(-c2ccccc2)n1	-7	0	-10	4%
7	-10%	-0.3	COc1ccc(C(=O)OCc2cc(C)ccc2C)cc1S(=O)(=O)N1CCCC1	1	5	6	-31%[inhibitor]
8	11%	-1.4	CC(C)C[C@@H](CO)N1CCN(Cc2ccc(Br)cc2)CCC1=O	-11	-5	5	-2%
9	9%	-2.4	O=C(Cn1cccc1C(=O)c1ccccc1)NCCc1ccc(Cl)cc1	-8	0	2	u
10	-17%	0.7	O=C(Nc1ccc(S(=O)(=O)Nc2nccs2)cc1)C1CCCCC1	0	1	6	15%

# The final 5 records of the section before come first, to join the parts:
cpd	gsp antag	D2 ag	SMILES	D2 PAM	Six1-Eya2 blk	CtBP-E1A blk	gsp ag
6	-3%	-1.6	COc1ccccc1NC(=O)CSc1ncn(-c2ccccc2)n1	-7	0	-10	4%
7	-10%	-0.3	COc1ccc(C(=O)OCc2cc(C)ccc2C)cc1S(=O)(=O)N1CCCC1	1	5	6	-31%[inhibitor]
8	11%	-1.4	CC(C)C[C@@H](CO)N1CCN(Cc2ccc(Br)cc2)CCC1=O	-11	-5	5	-2%
9	9%	-2.4	O=C(Cn1cccc1C(=O)c1ccccc1)NCCc1ccc(Cl)cc1	-8	0	2	u
10	-17%	0.7	O=C(Nc1ccc(S(=O)(=O)Nc2nccs2)cc1)C1CCCCC1	0	1	6	15%
11	1%	0.7	CCn1c(COc2ccc(C)cc2)nnc1SCC(=O)C(C)(C)C	-18	-4	2	-5%
12	10%	-1.9	Cc1[nH]c2ccccc2c1/C=N/Nc1nc(Nc2ccc(F)cc2)nc(N2CCOCC2)n1	-7	16	0	2%
13	8%	-1.7	COc1cc(C(=O)N2C[C@@H]3CCC[C@H]2C3)ccc1OC1CCN(C(C)=O)CC1	-2	2	4	-6%
14	-7%	-0.7	Cc1ccc(NC(=O)C(C)N2CCc3ccccc3C2)cc1 (stereo not drawn)	-15	13	18	-5%
15	-18%	-1.5	COc1ccccc1CNC(=O)COC(=O)c1ccccc1SCC(=O)N1CCCC1	-20	7	2	u
16	-2%	-2.5	CCOC(=O)/C=C1/SCC(=O)N1CC(=O)c1ccc[nH]1	-3	-12	1	-14%
17	-19%	-3.1	O=C1N[C@@H](Cc2ccccc2)COC(=O)[C@@H](Cc2ccc(F)cc2)CC/C=C/C[C@@H]1CC(=O)N(CCO)Cc1ccccc1	-15	-13	-14	x
18	-2%	-4.2	Cc1noc(C)c1CSCC(=O)N(CCC(C)C)c1c(N)n(Cc2ccccc2)c(=O)[nH]c1=O	-17	1	6	21%
19	14%	1.2	Cc1c(-c2ccc(Cl)cc2)[n+](=O)c2c(n1[O-])CCCC2	-2	1	-12	25%[15.4 µM]
20	-10%	-4.7	CC1=NN(C(=O)c2ccc(Cn3cc(Br)c([N+](=O)[O-])n3)o2)C(O)(C(F)(F)F)C1 (stereo not drawn)	-35	-11	-15	-3%
21	u	-2.4	CC1CCc2c(nc3sc4c(c3c2N)CCCC4)C1 (stereo not drawn)	-18	-10	-1	8%
22	-7%	-0.1	COc1cccc(C2=NOC(C(=O)Nc3ccccc3SC)C2)c1 (stereo not drawn)	4	4	-1	11%
23	-32%	1.6	CCOC(=O)C1CCN(c2ncnc3c2cnn3-c2ccccc2)CC1	-4	-3	3	-4%
24	-6%	2.4	CCC(C)[C@H](NC(=O)Nc1ccc(C(C)=O)cc1)C(=O)OC (stereo partly drawn)	-4	10	-4	-59%[inhibitor]
25	-3%	-3.2	CCOc1ccc(OCCC(=O)NNC(=O)c2cc(C)oc2C)cc1	-14	0	13	21%
26	-9%	-2.8	COCCN1Cc2cccc(C(=O)NC(C)c3cccs3)c2C1=O (stereo not drawn)	24	0	2	-3%
27	-33%	12	Cc1ccc(C2(c3noc(CN4CCC(c5ccncc5)CC4)n3)CCCC2)cc1	-13	-9	-3	-5%
28	-14%	0.2	O=C(CN1CCN(Cc2ccccc2Cl)CC1)N/N=C/C=C/c1ccccc1[N+](=O)[O-]	-15	-8	-17	29%
29	-11%	-2.0	CC1CC(C)CN(S(=O)(=O)c2ccc(NC(=O)C3COc4ccccc4O3)cc2)C1 (stereo not drawn)	1	-5	-2	-27%
30	-3%	-4.1	C=CCNC(=S)Nc1nc2c(cc1C(=O)OCC)CCCC2	-10	-5	-14	-2%
31	-12%	0.4	CCCSc1nc(C)cc(C)c1S(=O)(=O)c1ccccc1C	8	43	43	-33%[inhibitor]
32	3%	-4.7	C(=N\N1CCN(c2ccccn2)CC1)/c1ccccn1	-13	1	-2	16%[15.4 µM]
33	5%	2.0	COc1ccc(NC2CC(=O)N(c3ccccc3)C2=O)cc1 (stereo not drawn)	2	-6	4	0%
34	15%	-2.8	O=C(CN1CCN(Cc2ccccc2)CC1)N/N=C/c1ccc(Br)s1	-13	2	-2	2%[15.4 µM]
35	-19%	-1.6	Cc1ccc(O)c(-c2cc(C(=O)Nc3ccc(S(=O)(=O)N4CC(C)OC(C)C4)cc3)[nH]n2)c1 (stereo not drawn)	9	-19	-12	-1%
36	-3%	-3.5	Cc1cc(C(=O)COC(=O)c2ccccc2Br)c(C)n1CC1CCCO1 (stereo not drawn)	0	-13	-14	12%
37	1%	-0.7	Cc1cccc(-n2c(C)nc3cc(C(=O)NCc4ccc5c(c4)OCO5)ccc32)c1	-9	-3	0	9%
38	8%	-2.5	CN(C)C(CNS(=O)(=O)c1ccc(Cl)cc1F)c1ccco1 (stereo not drawn)	-6	15	22	u
39	-3%	9.5	O=C(Nc1cc(Cl)ccc1-n1cncn1)c1ccc([N+](=O)[O-])s1	9	-5	-14	1%[15.4 µM]
40	11%	-0.3	O=C(O)c1ccc(NC(=O)c2cccc(N3C(=O)C4C5CCC(C5)C4C3=O)c2)cc1 (stereo not drawn)	-18	5	15	25%

# A different layout for part of the listing above:
16) CCOC(=O)/C=C1/SCC(=O)N1CC(=O)c1ccc[nH]1
37) Cc1cccc(-n2c(C)nc3cc(C(=O)NCc4ccc5c(c4)OCO5)ccc32)c1
29) CC1CC(C)CN(S(=O)(=O)c2ccc(NC(=O)C3COc4ccccc4O3)cc2)C1 (stereo not drawn)
4) CCOC(=O)CN1C(=O)N[C@@H](CCc2ccccc2)[C@H](C(=O)OC)[C@H]1C
14) Cc1ccc(NC(=O)C(C)N2CCc3ccccc3C2)cc1 (stereo not drawn)
Compound	16	37	29	4	14
gsp antag	-2%	1%	-11%	11%	-7%
D2 ag	-2.5	-0.7	-2.0	-1.7	-0.7
D2 PAM	-3	-9	1	5	-15
Six1-Eya2 blk	-12	-3	-5	27	13
CtBP-E1A blk	1	0	-2	30	18
gsp ag	-14%	9%	-27%	x	-5%

# Remaining list, next part.
cpd	gsp antag	D2 ag	SMILES	D2 PAM	Six1-Eya2 blk	CtBP-E1A blk	gsp ag
41	1%	-0.9	CCOC(=O)CNC(=O)CSc1nc(N(C)C)nc(N2CCOCC2)n1	-12	4	-3	-1%
42	-1%	-1.2	N#Cc1ccc(OCC(=O)NCCc2ccc(S(N)(=O)=O)cc2)cc1	9	3	5	-14%
43	0%	-1.1	CCOc1ccc(NC(=O)c2ccccc2CO)cc1	u	3	4	-45%[inhibitor]
44	9%	0.3	CC(=O)Nc1ccc(S(=O)(=O)Nc2ccc3[nH]c(=O)[nH]c3c2)cc1	5	10	0	6%[15.4 µM]
45	-6%	2.4	Cc1ccc(S(=O)(=O)n2cnc(C)c2)cc1	-11	13	x	-1%
46	u	-0.3	O=C(Nc1ccc(Cn2cccn2)cc1)c1ccc(COc2ccccc2Br)cc1	-4	0	-4	-21%
47	1%	0.6	O=C(COc1ccccc1[N+](=O)[O-])Nc1ccc(CN2CCOCC2)cc1	-8	-3	2	11%
48	-9%	1.6	CCOC(=O)C1CCN(C(=O)C2CCN(S(=O)(=O)c3cc(Cl)ccc3OCC)CC2)CC1	27	6	0	5%
49	2%	-4.0	C=CCOC(Cn1ccnc1)c1ccc(Cl)cc1Cl (stereo not drawn)	-4	-1	x	-1%
50	-2%	6.2	Cc1cccc(N2CCN(C(=O)C3CCN(S(=O)(=O)N4CCOCC4)CC3)CC2C)c1 (stereo not drawn)	-4	-1	x	3%
51	-9%	0.4	Cc1cc2oc(=O)cc(CNc3ccccc3F)c2cc1O	-3	23	-7	20%
52	2%	2.3	Cc1cc(SCC(=O)OC/C(O)=C(\C#N)c2nc3ccccc3[nH]2)c(C)cc1Br	1	-3	11	3%[15.4 µM]
53	-3%	-1.1	COc1ccc(Cn2c(CCC(=O)N3CCN(c4ccccn4)CC3)nc3ncccc3c2=O)cc1	0	2	-1	u
54	-4%	-4.5	COc1ccc(N2C(=NC(=O)C(C)Oc3ccccc3)SC3CS(=O)(=O)CC32)cc1 (stereo not drawn)	-8	0	3	u
55	-1%	1.3	C/C(=N\NC(=O)c1ccc(Cl)c(S(=O)(=O)Nc2ccccc2Cl)c1)c1ccncc1	8	u	16	12%
56	-2%	4.4	O=C(COc1ccccc1Cl)NC(=S)Nc1ccccc1N1CCCC1	3	u	-28	-2%

# Source: PubChem
